Screening data as filed in PubChem.
RGS16-Gao HTS: modulators of RGS16 binding to Galphao, primary screen, biochemical, human proteins, multiplexed bead flow cytometry. 220,000 tested, 0.38% active. bead-based flow cytometry RGS16-Galphao binding, fluorescence; actives lie on both sides. Regulator of G-protein signaling 16 (Homo sapiens) + Guanine nucleotide-binding protein …. binding response (% of control), % at 10 µM;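 active = below 25% or above 175%, edge rows of some plates excepted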;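 also: Galphao activated by GDP with aluminum fluoride before binding; 100% = wells without compound and 0% = beads without RGS; some results beyond the cut were filed as inactive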
Target sequence (O15492 whole entry, looked up): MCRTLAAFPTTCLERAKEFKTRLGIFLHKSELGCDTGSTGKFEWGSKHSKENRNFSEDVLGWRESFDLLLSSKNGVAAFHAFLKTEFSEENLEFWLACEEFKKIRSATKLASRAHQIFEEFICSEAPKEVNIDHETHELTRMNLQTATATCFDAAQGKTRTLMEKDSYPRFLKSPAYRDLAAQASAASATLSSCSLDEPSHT
Target sequence (P09471 whole entry, looked up): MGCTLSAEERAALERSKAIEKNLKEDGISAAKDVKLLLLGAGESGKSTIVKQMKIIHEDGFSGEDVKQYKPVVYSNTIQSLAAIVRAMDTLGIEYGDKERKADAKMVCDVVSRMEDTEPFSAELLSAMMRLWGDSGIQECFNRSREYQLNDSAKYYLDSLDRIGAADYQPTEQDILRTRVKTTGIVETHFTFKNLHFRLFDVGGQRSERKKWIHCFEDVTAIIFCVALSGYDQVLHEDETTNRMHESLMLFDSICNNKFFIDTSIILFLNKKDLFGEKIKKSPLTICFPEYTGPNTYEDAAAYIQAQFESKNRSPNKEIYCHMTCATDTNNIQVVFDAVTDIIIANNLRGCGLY
PKD1 kinase inh: inhibitors of human PKD1 kinase, biochemical, fluorescence polarization | inhibition, %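 (about 10 µM by stock and volumes)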 | 200,000 tested, 0.056% active | Serine/threonine-protein kinase D1 (Homo sapiens), Q15139 | PKD1 kinase fluorescence polarization assay;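 active = inhibition of 50% or more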;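 also: controls were vehicle for no effect and a reference inhibitor for full effect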
HSV augment: enhancers of HSV replication in host cells, fold increase, host cell viability; HSV replication augmentation in cells; maximum fold increase; 220,000 tested, 0.005% active;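 active = peak rise of 1.5-fold or more in the series; inconclusive = self-fluorescent or not available for retest; tested in PC3 cells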;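 also: first round at 10 µM; read as green reporter fluorescence; hits show the peak of a series up to 25 µM; 1 = signal of infected wells without compound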
GALR2 ag: GALR2 receptor agonists, primary screen, cell-based; Galanin receptor type 2 (Homo sapiens), O43603; GALR2-expressing cells, agonist activation read-out; activation, %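 (tested at 5 µM)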; 140,000 tested, 0.48% active; AID 803, 2007;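 active = above mean plus 3 SD of all compounds, about 5% in these data, not always enough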;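 also: 0% = vehicle buffer wells and 100% = reference agonist at full effect; tested in CHO reporter cells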
Target sequence (O43603 whole entry, looked up): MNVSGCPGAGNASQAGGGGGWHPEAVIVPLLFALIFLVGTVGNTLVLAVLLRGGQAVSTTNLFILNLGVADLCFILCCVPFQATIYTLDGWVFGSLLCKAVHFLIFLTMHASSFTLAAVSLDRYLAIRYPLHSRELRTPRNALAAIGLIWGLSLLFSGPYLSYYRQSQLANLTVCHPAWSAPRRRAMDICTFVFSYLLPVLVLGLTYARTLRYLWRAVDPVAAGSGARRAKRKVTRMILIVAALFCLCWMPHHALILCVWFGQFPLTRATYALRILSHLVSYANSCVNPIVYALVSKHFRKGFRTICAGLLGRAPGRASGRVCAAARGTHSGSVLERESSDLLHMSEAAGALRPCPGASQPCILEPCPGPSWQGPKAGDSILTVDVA
INS promoter inh: inhibitors of insulin promoter-driven GFP, primary screen, imaging, TRM-6 cells (human fetal islet line), eGFP reporter, cell count; reporter expression induced with tamoxifen; inhibition, % at 2 µM; 130,000 tested, 0.9% active; AID 1273, 2008;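 active = inhibition above the mean plus 3 SD, with well images judged a real hit on visual review, cut at about 60% in these data, passing the limit was not always enough; inconclusive = inhibition over the cutoff but images rejected on review; inactive = inhibition not above the cutoff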
INS promoter inh cell count: second read-out of INS promoter inh, no call of its own (marks repeat the call); normalized cell count, %; measured here: cell count, toxicity; reference of the scale not given here;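 cells exposed to compound for 48 h; stained nuclei by imaging scaled within each plate; lower means fewer cells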
HSV augment primary fold: second read-out of HSV augment, no call of its own (marks repeat the call); fold increase; compound at 10 µM; measured here: primary screen fold increase 10 uM; tested in PC3 cells;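 GFP signal in the first replicate; 1 = infected wells without compound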
Numbers without * were called inactive; i = inactive; ? = inconclusive; · = no result given.

SMILES,HSV augment primary fold,GALR2 ag,INS promoter inh,INS promoter inh cell count,HSV augment,RGS16-Gao HTS,PKD1 kinase inh
Cc1ccccc1-n1c(=O)cc(N2CCN(Cc3ccccc3)CC2)[nH]c1=O,0.89,-0.7,·,·,i,103,-1
CCC(=O)NC(=S)Nc1ccc(Cl)cn1,0.94,0.3,-12,145,i,91,-4
COc1nc(Oc2ccc(=O)[nH]n2)nc(N2CCOCC2)n1,0.94,-0.1,-54,97,i,184,-5
CC1CC(C)CN(CCOc2ccc(Cl)cc2Cl)C1 (stereo not given),0.95,-2.3,-58,91,i,99,-2
Cc1ccc(S(=O)(=O)c2c(C)nn(C(C)(C)C)c2OC(=O)C2CCCC2)cc1,0.99,0.0,82*,70*,i,105,-6
COc1ccc(-c2nncnn2)cc1,·,-2.5,-17,79,?,103,-4
O=C(Nc1ccccc1)N1CCCc2ccccc21,1,0.0,40,80,i,105,6
CCc1ccc(NC(=S)NC(=O)c2c(-c3ccccc3Cl)noc2C)cc1,1.1,·,·,·,i,102,·
CCOC(=O)C1CCCN(c2c(NCC3CCCO3)c(=O)c2=O)C1 (stereo not given),0.93,-2.2,·,·,i,104,-1
CSc1ccccc1NC(=O)CSCc1ccc(C)cc1,0.75,-0.1,·,·,i,99,-9
COc1cccc(Nc2nc(N)c([N+](=O)[O-])c(NCc3ccco3)n2)c1,0.87,·,·,·,i,104,·
O=c1c2ccccc2c(/C=N/n2cnnc2)c(O)n1-c1ccccc1F,0.85,·,·,·,i,96,·
COc1ccc(-c2nc(NC(=O)CCNC(=O)c3ccco3)sc2C)cc1,0.9,·,58,60,i,137,-3
O=C(O)COCC(=O)Nc1ccc(Oc2ncnc3cc(Cl)ccc23)nc1,0.97,·,·,·,i,96,·
CN(C)S(=O)(=O)N1CCN(c2ccccc2)CC1,1.2,0.4,9,158,i,105,0
Cc1ccc(N(CC(=O)Nc2cccc(N(C)S(C)(=O)=O)c2)S(C)(=O)=O)cc1,1.1,-1.7,18,124,i,101,-3
Cc1ccc(C(C(=O)NC(C)(C)C)N(C(=O)c2csnn2)C2CC2)cc1 (stereo not given),1.1,-0.7,-46,93,i,103,-8
CC(C)(C)OC(=O)NCCc1n[nH]c(=S)o1,1.1,·,·,·,i,104,·
O=C(NCc1ccco1)c1ccc(Cn2c(=O)c3ccccc3n(Cc3ccc(Cl)cc3)c2=O)cc1,0.83,-2.1,-7,100,i,101,-7
Cc1ccc(C(=O)N2CCCCCC2)cc1Br,0.73,-3.4,-53,54,i,101,-5
COc1cccc(C(=O)N/N=c2\oc3c(OC)cccc3cc2C(=O)NCc2ccccc2)c1,1,-0.4,30,99,i,104,-6
O=C(c1coc(=O)c(Br)c1)N1CCC(C(O)(c2ccccc2)c2ccccc2)CC1,0.96,·,·,·,i,97,·
Cc1ccc(OC(=O)c2cc(C)nn2C(C)(C)C)cc1,1.2,·,·,·,i,100,·
O=C(Nc1ccc(S(=O)(=O)NCCc2ccccc2)cc1)c1ccco1,0.92,-2.1,31,124,i,116,-5
Cc1ccc(N(C)C(=O)N2CCN(S(=O)(=O)c3ccc4ccccc4c3)CC2)cc1,0.93,-1.3,-23,86,i,103,-5
COc1ccc(NC(=S)N(CCc2c(C)[nH]c3ccc(C)cc23)Cc2ccco2)cc1,·,-1.3,-5,82,·,·,-9
Cc1ccc(S(=O)(=O)N2CCCCC2C(=O)N2CCN(Cc3ccccc3)CC2)cc1 (stereo not given),1,-1.6,·,·,i,112,6
Cc1ccc(Cl)cc1N1CCN(C(=O)Cc2cn(C)c3ccccc23)CC1,0.93,-2.3,-10,107,i,71,5
O=C(CN(c1ccc(Cl)c(C(F)(F)F)c1)S(=O)(=O)c1ccccc1)N1CCOCC1,0.92,-1.4,-61,85,i,97,-17
COc1cccc(-n2nnc3c(=O)n(CC(=O)N4CCC(C)CC4)cnc32)c1,1.1,-2.2,0,134,i,106,-16
CCC1=NN(C(=O)C(=O)Nc2ccccc2OC)C(O)(C(F)(F)F)C1 (stereo not given),0.68,-1.3,10,90,i,99,-3
O=C(O)C1OC(Oc2cc3oc(-c4ccccc4)cc(=O)c3c(O)c2O)C(O)C(O)C1O (stereo not given),1.1,-2.0,0,61,i,33,30
Cn1nc(-c2ccc(Cl)cc2)c2cc(C(=O)N3CCOCC3)sc21,0.86,-2.6,·,·,i,106,3
Cc1ccc(/C=N/NC(=O)CNC(=O)c2ccc(C)c([N+](=O)[O-])c2)o1,0.96,·,·,·,i,101,-14
Cc1ccc(Sc2ccc(CO)cc2[N+](=O)[O-])cc1,0.85,·,5,98,i,104,5
CCO[C@H]1OC(C(=O)NCc2nc3ccccc3[nH]2)=C[C@@H](c2ccccc2)[C@@H]1CCCO,0.86,·,·,·,i,82,1
O=C1CSC(=S)N1CC1CCCO1 (stereo not given),0.85,-1.2,·,·,i,88,0
COc1ccc(N=c2scc(-c3ccc(OC)cc3)n2CCO)cc1,0.84,-4.3,0,173,i,102,-9
CCCCN(C)CCn1c(=S)[nH]c2ccc(N3CCOCC3)cc2c1=O,0.76,-2.2,-3,98,i,104,-9
CCCC(=O)N1c2ccccc2C(N(C(C)=O)c2ccccc2)CC1C (stereo not given),0.91,-0.4,-9,107,i,115,-5
Cc1ccc(NC(=O)C2CCN(C(=O)NC3CCCCC3)CC2)c(C)c1,0.86,-3.3,51,125,i,123,-10
Cc1cc(-c2ccccc2C(=O)Nc2ccccc2O)on1,1.1,·,·,·,i,88,·
CCOc1cc(N2CCOCC2)c(OCC)cc1NC(=O)c1cc(C)cc(C)c1,0.89,·,-22,144,i,102,-1
CCn1c(CNc2ccc(F)cc2)nnc1SCC(=O)N1CCCc2ccccc21,1,-1.2,·,·,i,104,-8
Cc1cc(C)cc(-n2nnc(C(=O)NCc3ccccc3)c2N)c1,0.86,-1.1,·,·,i,85,1
O=c1c2cc(NC(=S)N3CCC(N4CCCCC4)CC3)ccc2nc2n1CCCCC2,1.1,·,-91,78,i,99,-5
c1ccc(-c2nccc(-c3ccc4c(c3)OCO4)n2)cc1,0.92,·,·,·,i,102,-3
CCn1nc2cc(C(=O)NCc3cc(C(F)(F)F)cc(C(F)(F)F)c3)ccc2c1OC,0.8,-2.5,·,·,i,99,-5
CCc1nnc(NC(=O)CSc2nnc(-c3cccnc3)n2CCc2ccccc2)s1,0.82,-2.7,·,·,i,103,-9
C[N+]1(CN2C(=O)C3C4C=CC(C4)C3C2=O)CCCCC1 (stereo not given),1,·,·,·,i,97,·
Cc1c(Br)c([N+](=O)[O-])nn1C(C)C(=O)NCc1cccs1 (stereo not given),1,-1.1,·,·,i,101,6
O=C(O)c1cccc(-c2nnn(Cc3ccccc3)n2)c1,0.92,-0.7,47,98,i,103,4
CCOC12CC(C)(C)CC(C)(CC3=C1C(=O)CC(C)(C)C3)C2 (stereo not given),1.1,0.1,74*,4.9*,i,119,-8
O=C(CSCc1cnn(-c2ccccc2)c1-n1cccc1)NCc1cccnc1,1,·,·,·,i,103,-8
COc1ccc(CCSc2nnc(C3CCCCC3)n2N)cc1,1,-0.5,50,106,i,101,-7
COc1cccc(C(=O)NNC(=S)NC2CCCCC2)c1,1,-0.1,-31,126,i,106,8
Cn1c(=O)[nH]c(=O)c2c1nc(NC1CCCCC1)n2Cc1ccccc1,0.99,-1.5,·,·,i,100,-1
COc1ccc(CC(=O)NCc2ccc3c(c2)cc(C)n3C)cc1OC,0.94,·,19,136,i,117,-2
COC(=O)Nc1ccc(S(=O)(=O)N2CCCC(C(=O)Nc3cccnc3)C2)cc1 (stereo not given),0.89,0.3,-17,90,i,58,4
COc1ccc(/C=C/CN2CCCC(CCC(=O)NCc3ccc(F)c(F)c3)C2)cc1 (stereo not given),0.99,·,-142,69,i,100,-13

Going on with the list:
SMILES,HSV augment primary fold,GALR2 ag,INS promoter inh,INS promoter inh cell count,HSV augment,RGS16-Gao HTS,PKD1 kinase inh
O=c1ccc(-c2ccccc2)no1,0.9,·,·,·,i,112,·
Nc1cc(C(F)(F)F)cc2c1SCC(=O)N2,1,-0.3,-29,87,i,96,-9
CCn1c(CSc2nnc3ccccn23)nc2cc(C(=O)O)ccc21,1,-1.6,·,·,i,105,-3
COc1ccc(Nc2nc(CN3CCOCC3)nc3sc4c(c23)CCC(C)C4)cc1OC (stereo not given),0.82,-1.3,12,71,i,115,-16
COc1ccc(/C=C2\SC(N3CCc4ccccc4C3)=NC2=O)cc1OC,1,-0.1,11,96,i,93,4
CC(C)(C)n1nnnc1C(c1ccc2ncccc2c1)N1CCC(O)CC1 (stereo not given),0.93,·,-87,127,i,105,-2
O=C(c1ccccc1)C(CCC(CN1CCOCC1)C(=O)c1ccccc1)CN1CCOCC1 (stereo not given),0.57,-0.4,-4,32,i,102,-8
CC/C(=C\C(=O)c1ccncc1)Nc1ccc(O)cc1,0.97,-1.6,-15,96,i,94,-3
c1ccc(-c2cnn3c(-c4ccccc4)c(-c4ccccc4)nc3n2)cc1,·,-2.9,·,·,?,105,40
O=C(NCCN1CCOCC1)c1ccc(Cl)c(S(=O)(=O)N2CCCCCC2)c1,1,-0.9,0,85,i,83,-8
Cc1ccc(O)c(N=Cc2ccc(C)s2)c1,1,-0.5,0,70,i,105,-3
CCCS(=O)(=O)n1nc(-c2ccc(Br)cc2)cc1N,0.84,-1.2,·,·,i,95,-8
Cc1ccc(SCCNS(=O)(=O)c2ccc(F)cc2)cc1,0.92,-0.6,-91,117,i,101,-3
Cc1ccc(-n2cc(CNC(C)Cn3cncn3)c(-c3ccc(F)cc3)n2)cc1 (stereo not given),0.94,·,·,·,i,97,-3
N/C(=N\OS(=O)(=O)c1ccc(Cl)cc1)c1cccnc1,·,-0.8,25,112,·,94,5
Clc1cccc(Cl)c1-c1noc(CN2CCOCC2)n1,0.85,·,·,·,i,96,·
Cc1ccc(C)c(Oc2nnnn2-c2ccccc2)c1,0.88,0.3,9,103,i,112,8
O=c1oc2ccccc2c(Nc2ccc(F)cc2)c1[N+](=O)[O-],0.86,·,-69,128,i,98,-6
Cc1ccc(N2CCN(/N=C/C(Cl)=C/c3ccccc3)CC2)cc1,0.96,·,·,·,i,99,2
CC1(c2cnc(Nc3ccccc3)s2)CCC(=O)O1 (stereo not given),0.83,-2.5,40,155,i,105,-3
CC1CCN(CCCNC(=O)c2ccc3c(=O)n(Cc4ccc(Cl)cc4)c(=S)[nH]c3c2)CC1,0.63,·,0,144,i,110,-1
CN(C)c1nc(Oc2ccc(=O)n(-c3ccccc3)n2)nc(N2CCOCC2)n1,1,-1.7,35,111,i,89,-16
[O-][n+]1ccccc1SC/C=C/c1ccccc1,0.93,·,-127,54,i,121,-8
CCCOC(=O)CC1C(=O)NCCN1Cc1ccccc1C (stereo not given),1,-2.0,·,·,i,·,-5
N=C(c1cccc([N+](=O)[O-])c1)N1CCCCCC1,1.1,·,·,·,i,98,-3
Clc1ccc(-c2cnn3c(-c4ccncc4)ccnc23)cc1,0.95,·,·,·,i,97,-10

Compounds listed so far with a tert-butyl group (five):
SMILES,HSV augment primary fold,GALR2 ag,INS promoter inh,INS promoter inh cell count,HSV augment,RGS16-Gao HTS,PKD1 kinase inh
Cc1ccc(S(=O)(=O)c2c(C)nn(C(C)(C)C)c2OC(=O)C2CCCC2)cc1,0.99,0.0,82*,70*,i,105,-6
Cc1ccc(C(C(=O)NC(C)(C)C)N(C(=O)c2csnn2)C2CC2)cc1 (stereo not given),1.1,-0.7,-46,93,i,103,-8
CC(C)(C)OC(=O)NCCc1n[nH]c(=S)o1,1.1,·,·,·,i,104,·
Cc1ccc(OC(=O)c2cc(C)nn2C(C)(C)C)cc1,1.2,·,·,·,i,100,·
CC(C)(C)n1nnnc1C(c1ccc2ncccc2c1)N1CCC(O)CC1 (stereo not given),0.93,·,-87,127,i,105,-2
